# Screening data (PubChem BioAssay)
# CtBP-E1A blk – CtBP/E1A binding inhibition; AlphaScreen GST-E1A/His-CtBP binding, 1536-well; hits give low values; control for the full effect not named in the record; activity change, % (test concentration not listed); 0.49% of 340,000 active; AID 651724; in the data active means activity change below about -65%; inconclusive means about -30% to -65%; inactive means above about -30%; further: on the % scale 0 is the no-effect control and ±100 the full control effect; compound concentration not given in the record
#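 In 5 uL wells, 23 nL compound meets equimolar GST-E1A and His-CtBP (5X stock 125 nM each) for 2 h, 37 °C. Beads (5X, 50 ug/mL) then 1 h, 37 °C, dark.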
# Menin MLL FP FL – displaces fluorescein MLL peptide from human menin; AID 1766; 290,000 tested, under 10 active; Fluorescence polarization, fluorescein-MLL peptide displacement from menin; FP activity change, % at 61.4 µM; inconclusive = falling polarisation curve, or a change in total fluorescence; inactive = total fluorescence flat and polarisation flat or rising; no compound was filed as active; the % refers to the polarisation; negative = inhibition;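 further: % of control where 0% means no effect; inhibitors lower the polarisation; unlabelled MLL peptide was the positive control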
# TRPV1 PAM – human TRPV1 potentiation | Q8NER1 | TRPV1-expressing cells, Fluo-8 calcium influx, capsaicin EC20 potentiation; host cell line not named in the record; control for the full effect not named in the record | potentiation, % at 8.33 µM | 0.02% of 320,000 active; active means potentiation above 80%; inconclusive means 30% to 80%; inactive means below 30%; further: 0% is about no effect
# Target sequence (Q8NER1 whole entry, looked up): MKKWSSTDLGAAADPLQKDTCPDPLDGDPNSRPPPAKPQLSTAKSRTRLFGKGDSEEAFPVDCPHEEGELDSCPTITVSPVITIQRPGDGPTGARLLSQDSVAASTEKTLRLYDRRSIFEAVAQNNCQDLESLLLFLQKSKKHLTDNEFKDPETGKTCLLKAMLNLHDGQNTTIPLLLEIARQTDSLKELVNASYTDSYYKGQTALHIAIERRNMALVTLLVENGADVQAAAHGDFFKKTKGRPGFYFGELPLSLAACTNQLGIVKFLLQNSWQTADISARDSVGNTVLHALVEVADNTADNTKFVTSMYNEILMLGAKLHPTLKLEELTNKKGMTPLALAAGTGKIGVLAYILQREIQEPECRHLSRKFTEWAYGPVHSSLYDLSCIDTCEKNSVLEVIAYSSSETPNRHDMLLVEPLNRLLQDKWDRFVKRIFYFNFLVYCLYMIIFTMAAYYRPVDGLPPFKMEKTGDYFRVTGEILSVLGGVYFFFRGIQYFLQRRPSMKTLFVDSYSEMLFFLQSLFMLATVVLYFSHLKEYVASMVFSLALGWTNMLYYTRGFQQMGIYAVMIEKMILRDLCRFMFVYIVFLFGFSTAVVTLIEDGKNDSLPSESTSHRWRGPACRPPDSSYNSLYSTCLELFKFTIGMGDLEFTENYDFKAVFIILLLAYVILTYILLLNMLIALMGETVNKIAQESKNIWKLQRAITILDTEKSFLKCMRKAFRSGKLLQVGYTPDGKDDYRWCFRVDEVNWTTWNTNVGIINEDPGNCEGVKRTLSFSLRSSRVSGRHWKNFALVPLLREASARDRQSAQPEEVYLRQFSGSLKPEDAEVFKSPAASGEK
#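 Fluo-8 calcium influx in TRPV1-expressing cells, kinetic read (ex 480/em 520 nm). Compound added and read 3 min for agonist activity, followed by capsaicin at EC20 final and 2 min further read for enhancement.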
# gsp antag – gsp mutant antagonism | gsp-mutant cells, cAMP HTRF, 30 min; control for the full effect not named in the record | Potency, µM (titrated, usually from 76.9 µM), without a hit: at the top dose activity change, negative = inhibition, hits mostly inhibitors | 0.4% of 340,000 active; active = falling curve of any shape with a large fitted effect; inconclusive = falling curve, mostly with a smaller effect; inactive = flat or rising curve; cell line not stated here;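 further: intracellular cAMP measured with PDE inhibitor Ro 20-1724 present during compound exposure; potency means the concentration at half of the fitted maximal effect; on the % scale 0 is the no-effect control and ±100 the full control effect; nearly all actives have a fitted effect of over 65% in size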
#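 Cells, 2000/well, grown 16–24 h in DMEM 10% FBS with 0.5 mg/ml G418, then compounds plus […] (300 uM addition stock), 30 min at 37C. cAMP read by HTRF (cAMP-d2 and anti-cAMP antibody-K in lysis buffer) after 30 min RT.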
# ClpP mod – qHTS Assay for Activators of ClpP. ATP-dependent Clp protease proteolytic subunit (Bacillus subtilis (strain 168)), P80244. purified B. subtilis ClpP, FRET peptide cleavage, 20 min. Potency, µM (series often up to 57.5 µM), for the others: at the top dose activity change, negative = active. 1.9% of 340,000 active; active = well fitted falling curve with a large enough effect; inconclusive = small, poorly fitted or top-dose-only effect; inactive = no such curve, though single readings can be large or run the other way; further: potency means the concentration at half of the fitted maximal effect; the source files actives as falling curves though it sought activators and does not explain the sign; nearly all actives have a fitted effect of over 65% in size; many hits overshoot -100%
# Target sequence (P80244 whole entry, looked up): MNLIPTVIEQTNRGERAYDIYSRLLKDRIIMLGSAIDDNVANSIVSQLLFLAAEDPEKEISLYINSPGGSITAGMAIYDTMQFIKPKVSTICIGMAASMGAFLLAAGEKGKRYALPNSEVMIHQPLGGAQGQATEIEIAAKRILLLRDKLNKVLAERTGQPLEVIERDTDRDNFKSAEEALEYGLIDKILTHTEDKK
#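 Buffer: 100 mM Tris/HCl pH8, 100 mM KCl, 0.05% low protease BSA, 2.5% glycerol, 0.01% Tween-20. ClpP 10 microg/mL final; 20 min RT; delta FRET normalized to ADEP and DMSO controls.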
# Sfp PPTase inh – inhibitors of Bacillus subtilis Sfp phosphopantetheinyl transferase | Q9F4F7 | Biochemical Sfp PPTase activity, qHTS | Potency, µM, for inactives: max response, negative = inhibition, most hits filed as inhibitors | 3.5% of 310,000 active; active means well fitted inhibition curve with a large enough effect; inconclusive means small, poorly fitted or top-dose-only effect, or another doubt; inactive means no such curve, though single readings can be large or run the other way;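 further: the enzyme is Sfp with the accession as filed and its product quenches rhodamine fluorescence; potency means the concentration at half of the fitted maximal effect; 0% = enzyme reaction without inhibitor and -100% = no enzyme wells; top concentration of the series not given in the record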
#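 With Hepes-Na pH 7.6 buffer containing 10 mM MgCl2, Sfp (15 nM) modified BHQ-2-YbbR (12.5 uM) using rhodamine-CoA (5 uM). Two reads 30 minutes apart at 525/598 nm yielded each well's rate.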
# gsp agonist – activates gsp, the McCune-Albright syndrome mutation. gsp mutant cells, cAMP HTRF, 30 min; control for the full effect not named in the record. Potency, µM (highest dose often 76.9 µM), for the others: at the highest dose activation (cAMP increase), actives largely listed as activators. 0.13% of 340,000 active; active = well fitted activation curve with a large enough effect; inconclusive = small, poorly fitted or top-dose-only effect, or another doubt; inactive = no such curve, though single readings can be large or run the other way; cell line not stated here;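 further: phosphodiesterase inhibitor Ro 20-1724 added with compounds to block cAMP breakdown; potency means the concentration at half of the fitted maximal effect; nearly all actives have a fitted effect of over 60% in size; about a fifth of the inactives were tested at one dose only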
#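 Cells stably selected in G418 were plated at 2000/well, grown 16-24 hr, then given compounds in DMSO with the PDE inhibitor […] (300 uM solution added) for 30 min at 37C; cAMP was read by HTRF.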
# * = called active by the depositor; ? = inconclusive; · = not tested or not shown; & = joins results of further samples; [ ] = dose if it differs, or a comment.
SMILES,CtBP-E1A blk,Menin MLL FP FL,TRPV1 PAM,gsp antag,ClpP mod,Sfp PPTase inh,gsp agonist
CN(CCC#N)S(=O)(=O)c1cc2c3c(c1)CCN3C(=O)CC2,·,0.1,-14,-4%,1.2%,8%,4%
CC1CCN(C(=O)CSc2nnc(Cc3cccn3C)n2CCc2ccccc2)CC1,-5,-0.4,-17,-13%,1.4%,6%,-2%
CCOC(=O)c1cc(C)sc1/N=C/C1=C(O)CCCC1=O,2,·,-7,-9%,2.7%,-28%,0%
CCC/C(C#Cc1cc(OC)cc(OC)c1)=C1/c2ccccc2C(=O)N1c1ccccc1,2,·,·,-3%,-0.1%,·,·
Cc1ccnc(SCCn2c(N3CCCCC3)nc3c2c(=O)n(C)c(=O)n3C)n1,2,1.5,-1,5%,0.9%,2%,-22%
NC(=O)NC(=O)C(Nc1ccc2c(c1)CCC2)c1ccccc1 (centres undefined),-18,-0.9,25,12%,-0.1%,3%,-30%
C=CC[C@H](CC(=O)N(CCO)Cc1ccccc1)C(=O)N[C@H](COC(=O)[C@H](CC=C)CC(=O)OC(C)(C)C)Cc1c[nH]c2ccccc12,-7,·,·,?,5.0%,·,·
O=C(CSc1cn(CCNC(=O)c2ccccc2)c2ccccc12)NCc1ccco1,-2,1.7,-8,-15%,0.1%,?,-37%[inhibitor]
COc1cccc(C(=O)NCCS(=O)(=O)NC(C)CCc2ccccc2)c1 (centres undefined),-2,·,-17,-9%,?,·,-45%[inhibitor]
Clc1ccc(NC2=NCCCCC2)cc1,13,-0.7,?,8%,-12%,4%,2%
COc1ccccc1C(=O)NNc1ncc(C)s1,-1,0.0,14,-4%,-0.3%,40µM*,0%[15.4 µM]
CC(=O)C1=C(C)Nc2ncnn2C1c1ccc(C)cc1 (centres undefined),3,0.1,-2,7%,0.2%,7%,-9%
N#C/C(=C/c1cn(-c2ccccc2)nc1-c1cccc(OCc2ccccc2)c1)C(=O)NCCCn1ccnc1,-7,·,1,-10%,?,-27%,11%
CCOc1ccc(NC(=O)CN(C)C(=O)Cc2c[nH]c3ccccc23)cc1OCC,1,·,9,8%,-3.2%,·,-16%
Cc1cccnc1NC(=O)Cn1nc([N+](=O)[O-])cc1C,1,-3.0,10,27%,·,13%,3%[15.4 µM]
CC(=O)Nc1ccc(-c2csc(NC(C)c3ccccc3)n2)cc1 (centres undefined),13,1.8,10,5%,·,50µM*,-1%
CCOC(=O)c1c(C)c(C(=O)NCc2cccs2)c(C)n1C,6,0.7,11,9%,-2.4%,12%,22%
COc1ccc2c(c1)C(C1C(=O)CCCC1=O)c1ccccc1O2 (centres undefined),-1,0.2,-11,5%,-5.6%,12%,1%
O=C(Nc1ccccc1N1CCCC1)c1ccc(Cl)cc1Cl,-3,-5.2,2,-1%,2.7%,9%,?
O=C(CSc1nnc(-c2ccco2)n1-c1ccccc1)NCc1ccco1,3,-1.3,2,-10%,1.1%,22%,-25%
COC(=O)CSc1ccnc2cc(Cl)ccc12,7,1.7,·,2%,·,12%,7%[15.4 µM]
NC(=O)C1CCN(C(c2ccccc2Cl)c2nnnn2Cc2ccc3c(c2)OCO3)CC1 (centres undefined),10,-1.1,-8,-2%,0.1%,17%,6%
COc1ccc(CN2CCC(CNS(=O)(=O)c3cccc(C(F)(F)F)c3)CC2)cc1,-9,5.2,3,18%,·,10%,0%[15.4 µM]
CN(C)/C=N/c1nc(Sc2ccc(C(F)(F)F)cc2[N+](=O)[O-])n[nH]1,-21,-0.6,·,6%,0.9%,13%,0%[15.4 µM]
CC(=O)C[C@H]1c2cc(C(F)(F)F)ccc2S(=O)(=O)N1c1ccc(N(C)C)cc1,-6,·,·,-7%,0.8%&0.6%,·,0%
O=C(Nc1nc2ccccc2[nH]1)c1ccc(Cl)cc1,-1,-3.0,-7,-9%,·,30%,-3%[15.4 µM]
COc1ccccc1C1CCN(C(=O)c2ccco2)CC1,4,-0.8,-19,-5%,·,-8%,5%[15.4 µM]
CCN(CC)S(=O)(=O)c1ccc(NC(=O)COC(=O)c2c[nH]c(=O)[nH]c2=O)cc1,·,7.6,5,11%,-0.5%,22%,4%
COc1ccc(C(=O)NC(=S)Nc2ccc(CN3CCOCC3)cc2)cc1Cl,·,·,-7,2%,-0.7%,-12%,-20%
O=C1N=C(N2CCCCC2)S/C1=C\c1ccc(Cl)cc1,-4,-4.5,-3,-1%,-0.3%,10%,-29%
O=C(C(=O)N1CCN(c2ccccc2Cl)CC1)c1c[nH]c2ccccc12,·,·,-8,0%,-0.9%,9%,-20%
CC(=C/c1ccccc1)/C=N/NC(=O)c1cnccn1,-1,4.1,-12,-11%,1.0%,1%,-44%[inhibitor]
COc1cccc(=O)c2c(C)n(C)c(C)c12,5,?,3,-28%,-0.3%,?,0%
CC(Oc1ccc2c(-c3ccccc3)cc(=O)oc2c1)C(=O)NCCCN1CCOCC1 (centres undefined),-5,·,24,-4%,-9.7%,15%,?
CC(C)NC(=O)N(C)C[C@H]1OCCCC[C@@H](C)Oc2ccc(NC(=O)C3CCCCC3)cc2C(=O)N([C@H](C)CO)C[C@@H]1C,-6,·,·,·,-3.6%,·,?
CC(C)[C@H](NC(=O)c1ccccc1)C(=O)OCC(=O)c1c(N)n(C)c(=O)n(C)c1=O,·,·,·,7%,-0.7%,·,?
COc1ccc(CCNC(=O)C2CCC(CNS(=O)(=O)c3ccccc3)CC2)cc1OC (centres undefined),·,-1.4,3,·,·,5%,·
CCOc1ccc(NC(=O)[C@@H](NC(=O)c2ccccc2Br)C(C)C)cc1,-3,-1.0,-3,-15%,0.9%,15%,-14%
COc1ccc(NC(=S)Nc2ccc(N)c([N+](=O)[O-])c2)cc1,-12,2.5,2,-7%,3.5%,?,3%
CSc1ccccc1OCc1cc(C(=O)NCCc2nc(C)cc(C)n2)no1,·,-1.0,1,4%,-0.4%,0%,-77%[inhibitor]

# Record cards, from the list above.
# Listed for COc1cccc(C(=O)NCCS(=O)(=O)NC(C)CCc2ccccc2)c1 (centres undefined) = CtBP-E1A blk: -2; Menin MLL FP FL: ·; TRPV1 PAM: -17; gsp antag: -9%; ClpP mod: ?; Sfp PPTase inh: ·; gsp agonist: -45%[inhibitor]
# Listed for CC(=O)C[C@H]1c2cc(C(F)(F)F)ccc2S(=O)(=O)N1c1ccc(N(C)C)cc1 = CtBP-E1A blk: -6; Menin MLL FP FL: ·; TRPV1 PAM: ·; gsp antag: -7%; ClpP mod: 0.8%&0.6%; Sfp PPTase inh: ·; gsp agonist: 0%

# The list continues:
SMILES,CtBP-E1A blk,Menin MLL FP FL,TRPV1 PAM,gsp antag,ClpP mod,Sfp PPTase inh,gsp agonist
CC(NCCC1(Cc2ccccc2Cl)CCOC(C)(C)C1)c1cccs1 (centres undefined),-1,-2.2,5,5%,·,-3%,-5%[15.4 µM]
Cc1cccc(NC(=O)Cn2cc(C=O)c3ccccc32)c1,1,0.6,-34,3%,-2.1%,20%,0%
CCCCn1c(N)c(N(CC(C)C)C(=O)C2CC(=O)N(c3ccccc3C(C)CC)C2)c(=O)[nH]c1=O (centres undefined),10,·,0,11%,·,·,4%[15.4 µM]
CN(C)S(=O)(=O)c1cc(NC(=O)CN2CCN(c3ccccc3F)CC2)ccc1Cl,0,-2.2,-9,2%,·,11%,4%[15.4 µM]
COc1cc(/C=N/Nc2ccnc(=O)[nH]2)ccc1O,-16,-5.2,24,-11%,-9.6%,-37%,16%
O=C(O)c1cc(Cl)ccc1-c1ccc(/C=C/c2cc(C(F)(F)F)[nH]c(=O)n2)o1,-5,?,-18,2%,·,-21%,9%[15.4 µM]
O=C(COc1ncnc2c(Cl)cc(Cl)cc12)NC1CCCCCC1,1,6.8,-6,28%,-5.2%,-4%,21%
COc1ccc(CCCC(=O)N/N=C/c2ccccc2OC)cc1,-13,5.1,-1,6%,-3.3%,4%,8%
Cc1ccc(N(C(C)C(=O)N2CCCC2)S(C)(=O)=O)cc1 (centres undefined),9,1.6,?,1%,·,22%,-42%[inhibitor]
O=C(CSC1=NS(=O)(=O)c2cc(F)ccc2N1)Nc1ccccc1,7,·,17,-10%,-0.4%,·,0%
Clc1cccc(CN2CCc3c([nH]c4ccccc34)C2)c1,-28,?,13,3%,·,?,-315%[inhibitor]
O=C(CN1C(=O)COc2ccc(S(=O)(=O)N3CCCCC3)cc21)NCc1ccc(F)cc1,-4,-1.0,2,-4%,1.1%&1.2%,4%,38%
COc1ccc(NC2CC(=O)NC2=O)cc1 (centres undefined),4,2.8,·,10%,-1.1%,0%,-21%
CC(C)C[C@H]1CN=C(Nc2ccccc2)N1CC1CCCCCC1,-1,·,-9,16%,-0.9%,·,·
Cc1ccc(CNC(=O)C2CC3Cn4c(nc5cc(C)c(C)cc54)C3N2C)o1 (centres undefined),-3,1.1,-23,-10%,-0.2%,-3%,·
CCOc1ccc(C2C(C(=O)c3ccco3)=C(O)C(=O)N2CCN2CCOCC2)cc1 (centres undefined),9,1.5,-3,7%,-1.2%,3%,23%
CCN(Cc1ccccc1)C(=O)COC(=O)c1n[nH]c2ccccc12,0,-6.7,-25,-7%,-13%,21%,18%
CCn1c(CNC(=O)Cc2ccc(OC)cc2)nnc1SCC(=O)c1ccccc1,-3,-6.9,?,14%,·,?,-2%[15.4 µM]
COc1ccc(C2N(S(=O)(=O)c3ccccc3)CCN2S(=O)(=O)c2ccc(C)cc2)cc1 (centres undefined),0,1.7,5,-3%,-0.5%,-1%,-31%[inhibitor]
CCOc1ccc(NC(=O)CN(C)C(=O)C2CC(=O)N(c3cccc(SC)c3)C2)cc1OCC (centres undefined),-72*,·,·,-13%,0.6%,·,?

# A different layout for four compounds above:
smiles	CtBP-E1A blk	Menin MLL FP FL	TRPV1 PAM	gsp antag	ClpP mod	Sfp PPTase inh	gsp agonist
COc1cc(/C=N/Nc2ccnc(=O)[nH]2)ccc1O	-16	-5.2	24	-11%	-9.6%	-37%	16%
O=C(O)c1cc(Cl)ccc1-c1ccc(/C=C/c2cc(C(F)(F)F)[nH]c(=O)n2)o1	-5	?	-18	2%	·	-21%	9%[15.4 µM]
O=C(COc1ncnc2c(Cl)cc(Cl)cc12)NC1CCCCCC1	1	6.8	-6	28%	-5.2%	-4%	21%
COc1ccc(CCCC(=O)N/N=C/c2ccccc2OC)cc1	-13	5.1	-1	6%	-3.3%	4%	8%
